# eIF4H FP inh = inhibitors of RNA binding by human eIF4H; eIF4H fluorescence polarization binding assay; inhibition, % at 35 µM; Q15056; 0.94% of 290,000 active;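 active = 50% or more with normal probe brightness, or confirmed in later tests; about a fifth of its hits are not listed in these tables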;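 also: calls also rest on retests at 20 µM and on dose response follow-up; 0% = protein and probe with vehicle and 100% = probe without protein; strong numbers were not always called active; many hits fall short of the cut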
# MT1-MMP act inh = inhibitors of human MT1-MMP activation; P50281; HT1080 RFP-PRO-GFP cells, GFP/RFP ratio fluorescence, overnight; percent of plate control window, DMSO zero; GFP/RFP ratio change, % at 20 µM; 0.061% of 360,000 active; AID 651647;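 active = GFP/RFP ratio change of at least 30% with cell ATP level not reduced by more than half and red fluorescence within 50% of control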; also: strong numbers were not always called active
#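 Test system: HT1080 RFP-PRO-GFP cells; Benchmarks: DMSO and RFP-L50D-GFP cell wells; Timing: cells overnight before dosing, compound overnight, 37 °C, 5% CO2; Compound: one 20 µM compound dose with 1% DMSO; Read-out: GFP/RFP fluorescence ratio.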
# Rce1 inhib = inhibitors of yeast Ras-converting enzyme; 0.27% of 290,000 active; AID 2563; yeast membranes, quenched prenylated peptide cleavage fluorescence; calls only;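 active = fall in fluorescence gain of 50% or more versus controls, with final raw signal at or below 3038400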;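 also: plate controls were neutral control wells for no effect and wells lacking membranes for full effect; tested at 10 µM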
# Target sequence (Q03530 whole entry, looked up): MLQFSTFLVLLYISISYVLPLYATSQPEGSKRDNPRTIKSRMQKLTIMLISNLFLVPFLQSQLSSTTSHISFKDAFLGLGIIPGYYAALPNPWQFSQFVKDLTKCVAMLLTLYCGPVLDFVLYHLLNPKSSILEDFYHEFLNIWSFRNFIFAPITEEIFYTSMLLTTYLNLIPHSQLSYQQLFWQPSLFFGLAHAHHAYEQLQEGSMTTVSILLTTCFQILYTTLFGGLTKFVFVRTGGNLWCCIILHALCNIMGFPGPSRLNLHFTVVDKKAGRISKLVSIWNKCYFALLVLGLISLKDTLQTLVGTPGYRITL
# HIV Env fusion = HIV envelope-mediated fusion inhibition | HeLa-JRFL Env/CEM21 cell fusion, luciferase | inhibition, % at 12.3 µM | 1.1% of 360,000 active;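 active = mean replicate inhibition score of at least 50 and every replicate individually at or above 50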;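 also: 0% = plate neutral controls and 100% = maraviroc near 300 nM; one replicate is shown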
# Yeast UUG start = alters start codon recognition fidelity in yeast | S. cerevisiae UUG-firefly luciferase reporter, luminescence/redox ratio | activity score, % at 18.7 µM | 0.13% of 350,000 active;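 active = replicate mean at a twofold rise or more, about +100% in these data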;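 also: firefly luciferase made from a UUG start codon reports start codon fidelity; reporter light over untreated wells divided by growth signal over untreated wells; some hits fall short of that in this replicate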
# CSC inhib = cancer stem cell inhibition | inhibition, % at 7.5 µM | 1.1% of 300,000 active | cancer stem cell-like cells viability, luminescence | AID 2717;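 active = mean at 75% or more and at least half the replicates too; tested in HMLE shEcad cells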;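 also: 0% = median of negative and 100% = median of positive control wells; the first replicate is given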
# PABP FP inh = PABP-poly(A) binding inhibition. 1% of 290,000 active. P11940. PABP-poly(A) RNA binding, fluorescence polarization. inhibition, % at 35 µM;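 active = 50% or more with normal probe brightness, or confirmed in later tests; about a fifth of its hits are not listed in these tables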;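 also: calls also rest on retests at 20 µM and on dose response follow-up; controls were probe without protein and protein plus probe with vehicle; some compounds called inactive have numbers as strong as hits; many hits fall short of the cut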
# eIF4H FP inh retest = further read-out of eIF4H FP inh, marked with its call; inhibition, %; compound at 20 µM; confirmation average;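 mean of two retest wells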
# PABP FP inh retest = also measured in PABP FP inh; calls as there; inhibition, %; compound at 20 µM; confirmation repeats;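 mean of two retest wells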
# MT1-MMP act inh RFP = also measured in MT1-MMP act inh; calls as there; RFP signal change, %; measured here: RFP expression control read;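 0 = vehicle wells; hits needed this value within 50% of zero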
# * = called active by the depositor; i = inactive; . = no result given; + = active, no number; & = joins results of further samples.
SMILES,eIF4H FP inh,MT1-MMP act inh,MT1-MMP act inh RFP,Rce1 inhib,HIV Env fusion,Yeast UUG start,CSC inhib,PABP FP inh,others
O=C(Nc1cccnc1)c1cccc(S(=O)(=O)N2CCCCC2)c1,-11.0,2.6,0.6,i,-3.0,.,0.4,-0.9,
COc1ccc(CN2C(=O)C(CC(=O)NC(c3ccccc3)c3ccccc3)CC(C(=O)N(C(C)C)C(C)C)=C2C)cc1 (stereo not given),.,1.0,-3.6,.,-109.5,-4.6,.,.,
O=C(O)c1ccccc1C(=O)NCC(O)COCC1CC=CCC1 (stereo not given),-1.8,2.7,2.3,i,.,-10.0,-11.6,15.4,
Cc1ccc(S(=O)(=O)NNC(=O)c2cnn(-c3ccc(Cl)cc3)c2C(F)(F)F)cc1,-13.5,-0.5,-15.1,i,3.4,.,-6.8,-8.0,
Cc1ccccc1-c1cnc2c(c1)C(=O)N([C@@H](C)CO)C[C@@H](C)[C@H](CN(C)Cc1ccccc1F)O2,.,0.3,2.6,.,19.1,9.0&4.9&6.3,.,.,
Cc1nc2ccc(NS(=O)(=O)c3ccc(C)c(C)c3)cc2s1,-1.5,1.5,-11.1,i,71.4*,-0.6,7.8,3.0,
CCc1nnc(SCC(=O)Nc2ccc3ccccc3c2)n1N,.,2.1,1.4,.,.,-24.3,-0.5,.,
C[C@@H]1[C@H]2[C@@H]3CC[C@@H](C3)[C@H]2CN[C@H]1c1cn(Cc2ccccc2)c2ccccc12,.,4.6,1.8,.,-135.6,2.2,.,.,
COc1ccc(-c2csc(NC(=O)/C(N=Nc3ccccc3)=C(\C)O)n2)cc1,-3.4,.,.,i,.,.,-1.1,-4.3,
O=C(NC(c1ccccc1)c1ccccc1)c1ccc(CO)cc1,-8.2,2.4,1.8,i,-3.7,-14.4,3.7,7.7,
O=C(/C=C/c1ccccc1)Nc1cccnc1,-0.4,1.2,-4.6,i,-20.6,-12.9,-11.3,-2.8,
CC(C)CCOC(=O)C1[C@H]2C(=O)N(Cc3cccs3)C[C@]23C=C[C@H]1O3 (stereo not given in full),-12.1,4.0,3.3,i,.,-10.3,-6.1,-0.2,
COc1cc(C(=O)Nc2cccc(S(=O)(=O)N3CCCC3)c2)c([N+](=O)[O-])cc1OC,.,-0.5,-4.1,i,15.7,-9.0,-6.7,.,
CC(=O)NC1CC2CCCC(C1)N2S(=O)(=O)c1ccccc1 (stereo not given),2.5,5.3,5.2,i,-5.9,.,-9.2,-6.3,
COc1ccc(NC(=O)N2CCC(C(=O)c3ccc4c(c3)OCCO4)CC2)cc1,-9.6,0.4,-1.8,i,15.8,-10.4,.,5.4,
O=C(CS(=O)c1ccc(F)cc1)N1CCOCC1 (stereo not given),-6.0,1.0,2.3,i,-0.2,-12.8,11.8,5.0,
Cc1nn(-c2ccccc2)c(C)c1NC(=O)COC(=O)Cc1cccc(C(F)(F)F)c1,.,3.4,1.0,i,11.0,-8.1,-3.1,.,
CCN1CCN(CCCN(Cc2ccco2)C(=S)Nc2ccccc2Cl)CC1,-3.1,-1.4,-2.7,i,-9.3,-20.4,12.1,3.2,
CC1CC2(C)Oc3ccccc3CC2C(C)C1CNCCCN(C)C (stereo not given),2.0,-4.3,-6.1,i,22.3,.,49.0,20.5,
COc1ccc(/C=N/Nc2ccc(C(=O)O)cc2)cc1OC,-4.2,9.0,6.0,i,-10.4,-3.9,-7.5,0.0,
CC(C)N1CCC(N2CCN(Cc3cccnc3)CC2CCO)CC1 (stereo not given),4.0,-3.8,-0.3,i,0.4,-1.8,-16.2,8.1,
O=C(CSc1nc(-c2ccccc2)c(-c2ccccc2)[nH]1)NCC1CCCO1 (stereo not given),-1.3,-2.8,1.5,i,6.6,.,-5.0,-9.8,
NC(=O)C(=O)NN=C1CCC(c2ccccc2)CC1 (stereo not given),-8.5,-0.5,0.7,i,.,-16.6,-12.5,11.8,
COc1ccc2[nH]cc(C(=O)CCl)c2c1,-9.8,-16.0,-11.3,i,26.1,-16.6,38.6,10.0,
CCn1c(SCC(=O)NCC2CCCO2)nnc1-c1c[nH]c2ccccc12 (stereo not given),-5.3,4.2,3.8,i,.,-3.6,.,-8.3,
CCOC(=O)N1CCN(C2CCCN(C(=O)c3ccccc3SC)C2)CC1 (stereo not given),-1.0,-1.4,3.6,i,0.3,-0.3,-0.2,7.1,
O=C(CSc1n[nH]c(-c2ccc(Br)cc2)n1)N1CCOCC1,.,-7.2,-1.7,.,-5.0,.,10.8,.,
CCN(CC)C(=O)C1=C(C)N(CCC2=CCCCC2)C(=O)C(CC(=O)NCc2ccco2)C1 (stereo not given),.,-0.8,-1.2,.,-8.7,5.3,.,.,
S=C(NCCCN1CCOCC1)Nc1cccc(-c2nnc3n2CCCCC3)c1,0.6,2.5,0.9,i,3.3,.,-3.0,-8.6,
CC(=O)NC(=S)Nc1ccc(NC(=S)NC(=O)/C=C/c2ccco2)cc1,.,0.8,4.4,i,-8.1,.,5.6,.,
CN(C)/C=N/c1cc(=O)[nH]c(=O)n1Cc1ccccc1,-9.9,2.8,0.3,i,-29.5,1.8,-4.3,0.6,
COc1ccccc1NC(=O)c1cnc2n(c1=O)CCS2,-1.5,-5.8,-6.1,i,-103.1,-7.4,-12.3,-4.0,
COc1ccc(CNC(=O)C(c2cccc(C)c2)N(C(=O)c2csnn2)C2CC2)cc1 (stereo not given),-5.8,-0.8,1.1,i,-3.6,4.6,-13.4,-1.5,
Cc1csc(=O)n1CC(=O)OCC(=O)NNC(=O)c1ccc(Cl)cc1,.,-4.0,3.9,.,.,-14.7,-12.2,.,
COc1ccc(NC(=O)C2CCCN2C(=O)OCc2ccccc2)cc1 (stereo not given),-2.3,-0.8,0.9,i,19.7,-19.7,-16.3,-3.1,
CC(C)CCNC(=O)C(c1ccc(O)cc1)N(Cc1ccco1)C(=O)CCC(=O)Nc1nccs1 (stereo not given),-9.7,-4.8,-2.4,i,15.5,3.5,0.9,2.9,
Cc1ccc(N2CC(c3nc4ccccc4[nH]3)CC2=O)c(C)c1 (stereo not given),5.6,1.4,1.5,i,6.2,-18.5,-4.9,19.4,
Cc1noc(C)c1C(=O)OCC(=O)Nc1ncc(Cl)c(C)c1Cl,.,2.9,0.9,.,-72.9,1.2,-18.5,.,
COc1ccc(/C=N/NC(=O)c2cccc([N+](=O)[O-])c2)cc1OC,1.0,5.4,-3.5,i,4.8,.,-4.8,-2.4,
CSC1=N/C(=C\c2ccc(C)o2)C(=O)S1,20.9,-8.5,2.6,i,.,-14.1,0.6,39.5,
C=CCn1c(=N)n(CC(=O)c2ccc(Br)s2)c2ccccc21,11.5,-3.3,-2.8,i,13.7,-5.0,5.0,1.5,
CCc1ccc(NC(=O)CS(=O)CC(=O)N2CCN(c3ccccc3F)CC2)cc1 (stereo not given),0.1,-1.1,-1.9,i,2.8,-10.3,-1.0,6.5,
Cc1c(Cl)ccc(S(=O)(=O)Nc2cccnc2)c1Cl,-7.0,1.3,0.9,i,-1.1,-14.1,-1.2,-2.7,
O=C(CSc1ncccc1C(=O)O)c1cccc(C(F)(F)F)c1,-7.5,3.0,2.5,i,-20.7,9.6,12.2,-5.0,
Cc1cccc(-c2nc(CN3CCCC(C(=O)NC4CCCCC4)C3)c(C)o2)c1 (stereo not given),-2.8,-0.1,-3.4,i,23.6,-2.4,-2.5,1.8,

# Part of the list above in order of count of non-hydrogen atoms, descending:
SMILES,eIF4H FP inh,MT1-MMP act inh,MT1-MMP act inh RFP,Rce1 inhib,HIV Env fusion,Yeast UUG start,CSC inhib,PABP FP inh,others
CCc1ccc(NC(=O)CS(=O)CC(=O)N2CCN(c3ccccc3F)CC2)cc1 (stereo not given),0.1,-1.1,-1.9,i,2.8,-10.3,-1.0,6.5,
Cc1cccc(-c2nc(CN3CCCC(C(=O)NC4CCCCC4)C3)c(C)o2)c1 (stereo not given),-2.8,-0.1,-3.4,i,23.6,-2.4,-2.5,1.8,
Cc1csc(=O)n1CC(=O)OCC(=O)NNC(=O)c1ccc(Cl)cc1,.,-4.0,3.9,.,.,-14.7,-12.2,.,
Cc1c(Cl)ccc(S(=O)(=O)Nc2cccnc2)c1Cl,-7.0,1.3,0.9,i,-1.1,-14.1,-1.2,-2.7,

# Later entries:
SMILES,eIF4H FP inh,MT1-MMP act inh,MT1-MMP act inh RFP,Rce1 inhib,HIV Env fusion,Yeast UUG start,CSC inhib,PABP FP inh,others
O=C(Nc1ccccc1N1CCCC1)C1CC(=O)N(Cc2ccccc2)C1 (stereo not given),.,1.0,0.8,i,-36.5,-5.2,-1.8,.,
O=C(N/N=C/c1ccco1)c1ccc(Br)o1,-8.9,0.5,3.2,i,-81.2,-20.6,.,-7.3,
COc1ccc(Nc2nc(NCc3ccco3)nc(N)c2[N+](=O)[O-])cc1,6.9,3.8,-1.3,i,0.6,-2.9,-1.9,-1.4,
CCc1nnc(NC(=O)C2CCCN(C(=O)c3ccc(Cl)cc3)C2)s1 (stereo not given),.,-3.9,-6.1,.,-26.6,-5.0,-19.9,.,
CCOC(=O)N1CCC(=NNc2nc3ccccc3s2)CC1,-4.5,0.4,-3.9,.,-36.3,-29.4,-0.1,-1.8,
O=c1oc2ccccc2cc1NCc1ccccc1O,1.0,-1.4,-8.8,i,-71.7,4.0,14.6,-13.1,
O=C(Nc1nccs1)c1ccc(CSc2nnnn2-c2ccccc2)cc1,-18.6,1.2,-8.3,i,33.0,-8.2,-5.0,-6.8,
CC1C(=O)N2CCCc3cc(NC(=O)C(=O)NCCc4ccc(F)cc4)cc1c32 (stereo not given),.,3.1,3.8,i,-8.4,1.1,-4.2,.,
CCCNc1ccc(S(=O)(=O)N(C(C)C)C(C)C)cn1,2.1,9.9,7.2,i,-5.5,-17.3,2.2,5.3,
CCCN(CCC)Cc1cc(=O)oc2cc(OC)c(Cl)cc12,.,1.9,0.6,.,-6.1,-1.7,.,.,
CCCn1c(SCC#N)nc2c(c1=O)C1(CCCC1)Cc1ccccc1-2,9.1,-10.4,-13.7,i,5.5,-14.9,127.0*,8.4,
N=c1c(C(=O)NCc2ccc(F)cc2)cc2c(=O)n3ccccc3nc2n1CCCN1CCOCC1,19.3,3.1,4.1,.,.,-16.8,-3.0,13.5,
Cc1ccc(C(=O)CCC(=O)Nc2ncccc2O)cc1,.,.,.,i,-30.3,.,-8.5,.,
Cc1ccc(NC(=O)c2ccc3nc[nH]c3c2)nc1,57.1,-0.3,2.2,i,-44.6,-28.8,0.0,33.0,eIF4H FP inh retest=25.6;PABP FP inh retest=6.6
COc1ccc(CONc2ncnc3nonc23)cc1[N+](=O)[O-],2.0,-0.4,-0.1,i,1.7,.,-7.0,12.6,
c1ccc2c(c1)nc1n2CCN1CCN1CCCC1,1.0,-3.5,0.3,i,-2.2,-14.4,-15.8,0.3,
Cc1ccc(S(=O)(=O)NCc2cccnc2)c(C)c1,-8.9,1.9,0.7,i,-10.5,-0.5,-17.6,1.1,
Cc1ccc(-c2nc(CN3CCCCC3)cc(CN3CCCCC3)c2O)cc1,-0.8,0.3,0.5,+,-18.3,.,-2.6,4.3,
CC(=O)N(CC(=O)N(CC(=O)O)c1ccc(Cl)cc1)c1ccc(Cl)cc1,.,-0.8,1.0,.,-23.5,5.6,.,.,
COC(=O)CCC(=O)OC1(C)C(=O)C2=CN(C3CC3)C(c3ccc(OC)cc3)=CC2=C(Br)C1=O (stereo not given),.,2.6,13.9,i,.,-0.4,-3.5,.,
COc1ccc2c(c1)C(=O)CC(O)(C(F)F)O2 (stereo not given),9.1,0.3,-3.2,i,-6.7,.,8.5,-0.9,
Cc1nc(C(F)(F)F)ccc1C(=O)N1CCCCC1,5.8,-5.3,-2.0,i,-5.1,-7.8,-12.4,-8.7,
